nsP2pro primary = Primary qHTS for inhibitors of NSP2Pro chikungunya virus (CHIKV). Polyprotein P1234 (Chikungunya virus (strain S27-African prototype)), Q8JUX6. FRET peptide cleavage, nsP2pro, fluorescence 1 h. 31,000 tested, 1.1% active. Potency, µM (doses to about 24.9 µM), without a hit: at the top dose activity change, negative = inhibition, actives largely listed as inhibitors; active means well fitted inhibition curve with a large enough effect; inconclusive means small, poorly fitted or top-dose-only effect; inactive means no such curve, though single readings can be large or run the other way; note: nearly all actives have a fitted effect of over 60% in size; a reference inhibitor and vehicle were the controls
Target sequence (Q8JUX6 whole entry, looked up): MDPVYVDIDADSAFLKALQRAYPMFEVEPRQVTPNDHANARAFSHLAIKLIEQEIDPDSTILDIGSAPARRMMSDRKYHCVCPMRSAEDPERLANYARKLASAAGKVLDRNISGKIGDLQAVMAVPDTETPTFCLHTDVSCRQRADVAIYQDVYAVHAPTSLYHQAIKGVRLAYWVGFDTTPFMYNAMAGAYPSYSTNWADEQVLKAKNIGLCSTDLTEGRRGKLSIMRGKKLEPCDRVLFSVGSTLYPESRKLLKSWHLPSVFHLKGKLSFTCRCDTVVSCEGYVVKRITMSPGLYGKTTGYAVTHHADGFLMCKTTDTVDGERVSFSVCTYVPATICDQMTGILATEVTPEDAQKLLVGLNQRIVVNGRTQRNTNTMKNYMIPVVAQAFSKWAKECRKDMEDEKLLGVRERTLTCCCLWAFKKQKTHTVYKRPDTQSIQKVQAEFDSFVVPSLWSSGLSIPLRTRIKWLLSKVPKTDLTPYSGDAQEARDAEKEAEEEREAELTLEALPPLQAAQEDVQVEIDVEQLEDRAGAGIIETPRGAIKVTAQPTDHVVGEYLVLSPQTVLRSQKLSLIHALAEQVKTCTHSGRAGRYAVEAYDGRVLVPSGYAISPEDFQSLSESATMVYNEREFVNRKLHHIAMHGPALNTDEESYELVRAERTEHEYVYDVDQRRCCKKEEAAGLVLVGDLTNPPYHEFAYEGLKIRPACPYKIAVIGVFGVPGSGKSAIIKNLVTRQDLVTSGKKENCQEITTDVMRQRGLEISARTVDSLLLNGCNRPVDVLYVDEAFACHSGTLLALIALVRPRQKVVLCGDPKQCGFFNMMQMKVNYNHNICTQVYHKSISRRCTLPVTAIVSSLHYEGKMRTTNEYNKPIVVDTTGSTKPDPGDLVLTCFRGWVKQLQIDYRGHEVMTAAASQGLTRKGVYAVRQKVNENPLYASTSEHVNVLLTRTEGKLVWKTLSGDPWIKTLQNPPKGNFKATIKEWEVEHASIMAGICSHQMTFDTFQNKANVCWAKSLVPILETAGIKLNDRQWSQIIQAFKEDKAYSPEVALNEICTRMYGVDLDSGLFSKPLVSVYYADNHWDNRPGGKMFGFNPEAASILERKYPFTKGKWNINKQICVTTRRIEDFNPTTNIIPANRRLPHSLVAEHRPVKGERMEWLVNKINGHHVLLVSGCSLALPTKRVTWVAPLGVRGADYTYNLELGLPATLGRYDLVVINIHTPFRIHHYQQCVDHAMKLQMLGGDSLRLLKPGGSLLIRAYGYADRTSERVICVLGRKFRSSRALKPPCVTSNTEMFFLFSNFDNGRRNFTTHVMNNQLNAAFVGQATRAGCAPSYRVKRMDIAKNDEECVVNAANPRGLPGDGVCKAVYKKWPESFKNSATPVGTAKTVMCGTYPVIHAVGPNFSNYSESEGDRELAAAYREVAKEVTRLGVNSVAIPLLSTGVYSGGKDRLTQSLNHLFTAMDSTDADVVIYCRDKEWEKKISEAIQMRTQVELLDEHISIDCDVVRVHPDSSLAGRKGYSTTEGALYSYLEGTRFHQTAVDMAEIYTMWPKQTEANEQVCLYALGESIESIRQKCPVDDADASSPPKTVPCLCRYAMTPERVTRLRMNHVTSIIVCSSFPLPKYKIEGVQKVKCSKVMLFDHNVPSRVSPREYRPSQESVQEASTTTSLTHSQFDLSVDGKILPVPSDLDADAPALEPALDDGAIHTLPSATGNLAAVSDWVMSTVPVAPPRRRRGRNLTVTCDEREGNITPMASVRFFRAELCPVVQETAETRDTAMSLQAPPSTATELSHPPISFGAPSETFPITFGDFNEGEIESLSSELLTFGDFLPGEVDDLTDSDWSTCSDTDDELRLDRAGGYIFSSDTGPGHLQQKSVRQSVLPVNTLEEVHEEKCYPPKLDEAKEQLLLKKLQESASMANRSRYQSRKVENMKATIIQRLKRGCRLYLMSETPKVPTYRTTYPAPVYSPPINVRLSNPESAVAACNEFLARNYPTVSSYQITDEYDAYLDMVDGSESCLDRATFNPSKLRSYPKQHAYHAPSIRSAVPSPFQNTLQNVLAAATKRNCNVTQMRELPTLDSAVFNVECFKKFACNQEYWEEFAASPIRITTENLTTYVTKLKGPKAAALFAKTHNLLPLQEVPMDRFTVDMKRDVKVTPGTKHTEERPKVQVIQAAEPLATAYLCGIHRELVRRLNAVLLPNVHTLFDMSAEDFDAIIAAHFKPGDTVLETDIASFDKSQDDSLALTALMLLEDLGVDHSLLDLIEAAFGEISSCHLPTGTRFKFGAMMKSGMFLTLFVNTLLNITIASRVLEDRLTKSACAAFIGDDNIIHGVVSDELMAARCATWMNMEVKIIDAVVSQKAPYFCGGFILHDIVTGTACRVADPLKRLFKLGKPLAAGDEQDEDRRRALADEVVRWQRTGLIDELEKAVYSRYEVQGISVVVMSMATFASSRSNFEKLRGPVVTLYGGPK
* marks the source's active call; other numbers are inactive results; & = joins results of further samples; [ ] = remark or other dose. % is set by controls: 0 for no effect and ±100 for the full control effect; potency is the fitted concentration of half-maximal effect. The list is partial; the hit share may differ from the screen's.

For O=C1CCc2cc([S+](=O)([O-])NC3CCOCC3)ccc2N1 the results were nsP2pro primary 3%.
CCc1ccc(NC(=O)C(=O)NCC(c2cccnc2)N2CCOCC2)cc1 (stereo not drawn) was read as nsP2pro primary -14%.
Screening CCOc1ccc(NS(=O)(=O)c2ccc3c(c2)NC(=O)CCS3)cc1 returned nsP2pro primary 0%.
C=CCSC(C)C(=O)N1CCCn2nc(C(=O)OC)cc2C1 (stereo not drawn) was read as nsP2pro primary 2%.
CC(C)NC(=O)O[C@@H]1CC[C@]2(C)C(CC[C@@H](O)[C@H]2CC(=O)NCc2ccccc2)[C@]1(C)CO (stereo partly drawn) was read as nsP2pro primary 29%.
CC(=O)c1ccccc1-c1csc2ncnc(Sc3nnnn3C)c12 was read as nsP2pro primary -15%.
Screening CC(=O)NCCCC(=O)N1CCC2(CC1)CN(S(C)(=O)=O)Cc1ccccc1O2 returned nsP2pro primary -16%.
Cc1cc(NC(=O)CSc2nc(-c3ccccc3C)nc3c2c(=O)n(C)c(=O)n3C)no1 was read as nsP2pro primary -13%.
`CCC(C(=O)OCCN1CCOC(c2ccccc2)C1C)c1ccccc1` (stereo not drawn) gave nsP2pro primary 4%.
`CN(C)c1cccc(C(=O)Nc2nc3ccc(S(=O)(=O)NC(C)(C)C)cc3s2)c1` gave nsP2pro primary -10%.
`CCn1cc2nc(SCc3cccc(C(F)(F)F)c3)n(Cc3ccc(OC)cc3)c(=O)c2n1` gave nsP2pro primary -20%.
Screening CC1=C(C(=O)N2CCN(c3cc(C)ccc3C)CC2)C2(CCC(C)CC2)OC1=O (stereo not drawn) returned nsP2pro primary -32%.
N#Cc1cccc(S(=O)(=O)N2CCN(S(=O)(=O)c3ccc4c(c3)OCCO4)CC2)c1 was read as nsP2pro primary 1%.
For CCOc1ccccc1CN1CCC2(CCN(C(=O)Cc3ccccn3)CC2)Oc2ccccc21 the results were nsP2pro primary -4%.
For CCC(O)c1cc2n(n1)CCN(Cc1nccn1Cc1ccccc1)C2 (stereo not drawn) the results were nsP2pro primary inactive.
`Nc1nc2c(ncn2COC(CO)CO)c(=O)[nH]1` gave nsP2pro primary -6%&-2%.
CC(=O)NS(=O)(=O)c1ccc(N)cc1 was read as nsP2pro primary 17%.
For O=C1NCCCCCN(CC2CCCCC2)[C@H]2CCC[C@@H]12 the results were nsP2pro primary 5%.
O=c1ncn(Cc2ccccc2)c2ccc(-c3ccsc3)nc12 was read as nsP2pro primary -14%[39.2 µM].
`O=C(NCCN1CCC2(CC1)C(=O)NCN2c1cccc(F)c1)c1ccc2ccccc2c1` gave nsP2pro primary -10%.
Screening Oc1ccc(CCc2c(F)cccc2F)c2cccnc12 returned nsP2pro primary inactive.
Screening CC(=O)OC1C(O)/C(C)=C\C2C(OC(=O)c3ccccc3)C(C)CC2(OC(C)=O)C(OC(C)=O)C(C)/C=C/C(C)(C)C1OC(C)=O (stereo not drawn) returned nsP2pro primary 1%[10 µM].
`CC(O)[C@H]1CC[C@H]2[C@@H]3CC[C@@H]4C[C@@H](O)CC[C@]4(C)[C@H]3CC[C@]12C` (stereo partly drawn) gave nsP2pro primary inconclusive.
Screening Cc1ccc(C(=O)Nc2ccc(NC(=O)c3cccs3)cc2)cc1C returned nsP2pro primary -1%.
`COc1ccc(-c2ccc(NC(=O)c3cccs3)cn2)cc1` gave nsP2pro primary inconclusive.
`Cc1ccc(CN2CCCCCCNC(=O)[C@@H]3C[C@@H](C(=O)NCCc4cnc[nH]4)C[C@@H]32)o1` gave nsP2pro primary inconclusive.
O=C(c1ccc(F)cc1)N1C[C@@H]2C[C@H](C1)c1ccc(NS(=O)(=O)Cc3ccccc3)c(=O)n1C2 was read as nsP2pro primary 13µM*.
`COc1ccc(CC2CN(Cc3cccc(-n4cccn4)c3)CCO2)cc1` (stereo not drawn) gave nsP2pro primary -4%.
Screening Cc1ccc(OC(C)c2nc(-c3cccnn3)no2)cc1C (stereo not drawn) returned nsP2pro primary 0%.
`CN(CCO)C(=O)c1cn2cc(-c3cccs3)n(CC3CC3)c(=O)c2n1` gave nsP2pro primary 0%.
Screening Cc1cccc(N2CCN(C(=O)c3cc4c(=O)oc5ccccc5c4s3)CC2C)c1 (stereo not drawn) returned nsP2pro primary -15%.
Screening COc1ccc(CC(=O)N2CC[C@@H](CC(=O)O)[C@@H](CCN(C)c3ccccc3)C2)cc1 returned nsP2pro primary -9%[39.2 µM].
For O=C(C1CC1)N1CCC(Cc2nc(-c3ccc(F)cc3)no2)CC1 the results were nsP2pro primary 4%.
Screening COc1ccc(CNC(=O)CCc2c(C)nc3nc(CNC(=O)OC(C)(C)C)nn3c2C)cc1 returned nsP2pro primary -22%.
`CCOc1ccc(CCNC(=O)Cn2c(C)c3cnn(-c4ccccc4)c(=O)c3c2C)cc1` gave nsP2pro primary -23%.
Screening O=C1CC(c2nc(-c3cn4ccccc4n3)no2)CN1Cc1ccncc1 (stereo not drawn) returned nsP2pro primary 0%.
For Cc1ccn2cc(CNC(=O)c3cccc(C(F)(F)F)c3)nc2c1 the results were nsP2pro primary -5%.
Screening O=[N+]([O-])c1cccc(CNc2ccc(S(=O)(=O)Nc3nccs3)cc2)c1O returned nsP2pro primary 2%.
`OC[C@@H](O)C(O)[C@@H](O)CO` (stereo partly drawn) gave nsP2pro primary -25%.
For CC(C)(CO)[C@@H](O)C(=O)NCCC(=O)NCCSSCCNC(=O)CCNC(=O)[C@H](O)C(C)(C)CO the results were nsP2pro primary -1%.
For CC1(C)S[C@@H]2[C@H](N=CN3CCCCCC3)C(=O)N2[C@H]1C(=O)O the results were nsP2pro primary -6%.
For COc1cc(C2Nc3ccccc3C(=O)N2Cc2ccccc2)ccc1OCc1ccc(NC(C)=O)cc1 (stereo not drawn) the results were nsP2pro primary -21%.
Screening COCCn1c(C)cnc1CC1CCN(C(=O)c2c[nH]c3ccccc23)CC1 returned nsP2pro primary inactive.
Screening CCN(CC)CCNC(=O)c1ccc2c(c1)N(Cc1ccccc1)C(=O)c1ccccc1S2=O (stereo not drawn) returned nsP2pro primary 8%.
`NC[C@@H]1CC[C@@H](N)[C@@H](O[C@H]2[C@H](O)[C@@H](O[C@H]3O[C@H](CO)[C@@H](O)[C@H](N)[C@H]3O)[C@H](N)C[C@@H]2N)O1` gave nsP2pro primary -7%[10 µM].
Screening O=C(NC[C@H]1COCc2nc3cc(F)ccc3n21)C1CC1 returned nsP2pro primary -1%[39.2 µM].
For COCC(=O)N[C@H]1CCN(C(=O)COC)[C@H](C(=O)N[C@@H](Cc2cccs2)C(N)=O)C1 the results were nsP2pro primary 0%.
Screening Cc1ccc(N(CC(=O)N2CCN(c3cc(Cl)ccc3C)CC2)S(=O)(=O)c2c(C)noc2C)cc1 returned nsP2pro primary -16%.
COc1ccc(N(C(=O)Nc2c(C)cccc2C)c2cc(Nc3ccc(N4CCN(C)CC4)cc3)ncn2)c(OC)c1 was read as nsP2pro primary 25%.
`Cc1cc(Cl)ccc1NC(=O)Cn1nnc2sc(-c3ccccc3)cc2c1=O` gave nsP2pro primary -9%.
O=C(NC(=O)c1c(F)cccc1F)Nc1cc(Cl)c(OC(F)(F)C(F)C(F)(F)F)cc1Cl (stereo not drawn) was read as nsP2pro primary -11%.
Oc1cccc(O)c1O was read as nsP2pro primary 8.8µM*.
For CCc1ccc(NC(=O)CSc2nc3n[nH]c(C)c3c(=N)n2-c2ccc(C)cc2)cc1 the results were nsP2pro primary -5%.
CCOc1ccc(CC2NC(=O)CCSSCC(C(=O)N3CCCC3C(=O)NC(CCCN)C(=O)NCC(N)=O)NC(=O)C(CC(N)=O)NC(=O)C(C(C)O)NC(=O)C(C(C)CC)NC2=O)cc1 (stereo not drawn) was read as nsP2pro primary 36%[activator].
CCC(=O)NC(c1ccc(C)cc1)c1cc([N+](=O)[O-])c2cccnc2c1O (stereo not drawn) was read as nsP2pro primary inactive.
Cc1cc(-c2ccccc2)n2ncc(C(=O)Nc3ccc(Cl)c(Cl)c3)c2n1 was read as nsP2pro primary 3%.
`COc1ccc2c(c1O)OC[C@H]1c3ccc(O)cc3O[C@@H]21` gave nsP2pro primary 5%.
`N#CC1CCN(C(=O)c2nc(-c3ccc(Cl)cc3Cl)c3ccccn23)CC1` gave nsP2pro primary inactive.
Screening CN(C)C1CCN(C(=O)c2ccc(NC(=O)Nc3ccc(-c4nc(N5CCOCC5)nc(N5CCOCC5)n4)cc3)cc2)CC1 returned nsP2pro primary 16%[10 µM].
Screening CC[C@H](C)[C@H](NC(=O)[C@H](Cc1ccc(O)cc1)NC(=O)[C@@H](N)C(C)C)C(=O)N[C@@H](Cc1cnc[nH]1)C(=O)N1CCC[C@H]1C(=O)N[C@@H](Cc1ccccc1)C(=O)O returned nsP2pro primary -1%[2.68 µM].
Screening COCCCn1c(C)cc(C(=O)N2CCCC(c3[nH]ccc3C(N)=O)C2)c1C (stereo not drawn) returned nsP2pro primary -25%.
For CCN(CC)CCCC(C)n1c(-c2ccccc2)nc2c(N3CCOCC3)nc(C)nc21 (stereo not drawn) the results were nsP2pro primary -1%.
COc1cccc(Cn2ncc3c4sc(S(C)=O)cc4n(C)c3c2=O)c1 (stereo not drawn) was read as nsP2pro primary -21%&-18%&1%&-5%.
For N#Cc1cnc(N2CC3CCC(C2)N3CC(F)(F)F)s1 the results were nsP2pro primary -2%[39.2 µM].
Screening O=C(NC1CCCC1)c1ccc(CSc2nc3ccncc3n2Cc2ccc(F)cc2)cc1 returned nsP2pro primary 39%[activator].
For C=C1CC23CC(=O)C4C(CO)(CO)CCCC4(C)C2CCC1C3 (stereo not drawn) the results were nsP2pro primary inconclusive.
Screening COc1ccccc1C(=O)N1CCC(C(=O)N2CCC(N3Cc4ccccc4C3=O)CC2)CC1 returned nsP2pro primary 1%.
`CC(CNC(=O)c1cc(-c2ccccc2)n[nH]1)c1ccccc1` (stereo not drawn) gave nsP2pro primary -1%.
c1ccc(N2CCC(Cn3ccnc3-c3cc4n(n3)CCCNC4)C2)cc1 (stereo not drawn) was read as nsP2pro primary inactive.
COc1ccc(NC(=O)CCc2nc3c(C)nn(-c4ccc(C)cc4)c3n(C)c2=O)cc1 was read as nsP2pro primary -18%.
COc1cc(NC(=O)N2CCC(CN3CCCC3)CC2)cc(OC)c1OC was read as nsP2pro primary 5%.
For CCc1nc(C)sc1C(=O)N1C[C@@H](CN2CCCN(C)CC2)[C@@H](CO)C1 the results were nsP2pro primary 5%.
For C[C@H]1CN(S(=O)(=O)c2ccc3c(c2)OCCO3)CCN1S(=O)(=O)c1c(F)cccc1F the results were nsP2pro primary 0%.
For N#Cc1ccc(NC(=O)Nc2nnc(-c3ccncc3)s2)cc1C(F)(F)F the results were nsP2pro primary 1%.
Screening COc1ccccc1N1CCN(Cc2nc(-c3cc(OC)c(OC)c(OC)c3)no2)CC1 returned nsP2pro primary -22%.

6 compounds picked at random from the list so far, as already listed:
Screening COc1ccccc1N1CCN(Cc2nc(-c3cc(OC)c(OC)c(OC)c3)no2)CC1 returned nsP2pro primary -22%.
COc1cc(NC(=O)N2CCC(CN3CCCC3)CC2)cc(OC)c1OC was read as nsP2pro primary 5%.
For N#Cc1ccc(NC(=O)Nc2nnc(-c3ccncc3)s2)cc1C(F)(F)F the results were nsP2pro primary 1%.
For C=C1CC23CC(=O)C4C(CO)(CO)CCCC4(C)C2CCC1C3 (stereo not drawn) the results were nsP2pro primary inconclusive.
c1ccc(N2CCC(Cn3ccnc3-c3cc4n(n3)CCCNC4)C2)cc1 (stereo not drawn) was read as nsP2pro primary inactive.
COc1ccc(NC(=O)CCc2nc3c(C)nn(-c4ccc(C)cc4)c3n(C)c2=O)cc1 was read as nsP2pro primary -18%.

(listing goes on)
Screening CO[C@H]1C[C@@H]2CC[C@@H](C)[C@@](O)(O2)C(=O)C(=O)N2CCCC[C@H]2C(=O)O[C@H]([C@H](C)C[C@@H]2CC[C@H](n3cnnn3)[C@H](OC)C2)CC(=O)[C@H](C)/C=C(\C)[C@@H](O)[C@@H](OC)C(=O)[C@H](C)C[C@H](C)/C=C/C=C/C=C/1C returned nsP2pro primary 10%[10 µM].
`O=C([C@H](Cc1ccc(O[S+](=O)([O-])c2cccnc2)cc1)N[S+](=O)([O-])c1cccc2cnccc12)N1CCN(c2ccccc2)CC1` gave nsP2pro primary -4%.
Screening CC1=C(C(=O)Nc2nnc(-c3ccccc3)s2)C(c2nn(C)cc2Cl)N=C(Nc2nc3ccccc3o2)N1 (stereo not drawn) returned nsP2pro primary inactive.
NS(=O)(=O)c1cc(C(=O)O)cc(N2CCCC2)c1Oc1ccccc1 was read as nsP2pro primary 3%.
For COc1cc(NS(=O)(=O)c2ccc(N)cc2)nc(OC)n1 the results were nsP2pro primary -7%.
Screening CCN(CC)c1ccc(-c2nc(-c3ccccc3C)no2)cc1[N+](=O)[O-] returned nsP2pro primary -13%.
Screening COC(=O)c1sccc1S(=O)(=O)N(CC(=O)NCc1ccc(F)cc1)c1ccccc1 returned nsP2pro primary -6%.
`CN(C)c1cccc(-c2csc(N3CCC(C(N)=O)CC3)n2)c1` gave nsP2pro primary 4%.
COCCNC(=O)c1cc(-c2ccccc2OC)c2cccn2n1 was read as nsP2pro primary -32%[39.2 µM].
For COc1ccc(S(=O)(=O)N2CCC(c3nnnn3-c3ccccc3)CC2)cc1OC the results were nsP2pro primary -13%.
`O[C@@](Cc1ncc(CC2(C(F)(F)F)CC2)[nH]1)(c1ccc(-n2cccn2)cc1)C(F)(F)F` gave nsP2pro primary 71%[activator].

Arranged by formula weight (low to high): four of the compounds above
Screening COc1ccc(CC(=O)N2CC[C@@H](CC(=O)O)[C@@H](CCN(C)c3ccccc3)C2)cc1 returned nsP2pro primary -9%[39.2 µM].
Screening O=C(NC1CCCC1)c1ccc(CSc2nc3ccncc3n2Cc2ccc(F)cc2)cc1 returned nsP2pro primary 39%[activator].
Screening COc1ccccc1C(=O)N1CCC(C(=O)N2CCC(N3Cc4ccccc4C3=O)CC2)CC1 returned nsP2pro primary 1%.
For C[C@H]1CN(S(=O)(=O)c2ccc3c(c2)OCCO3)CCN1S(=O)(=O)c1c(F)cccc1F the results were nsP2pro primary 0%.

Screens from PubChem.
